Screens: PubChem, National Center for Advancing Translational Sciences (NCATS)
Vif-APOBEC3G blk = inhibitors of Vif-APOBEC3G interaction | hit rate 0.076% among 410,000 | Q9HC16 | HeLa A3G-eYFP + Vif (tagged APOBEC3G with the HIV-1 protein that degrades it), YFP fluorescence, overnight | Potency, µM (highest dose often 46.1 µM), for the others: at the top dose activity, negative = active, usual class: inhibitors;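 further: potency means the concentration at half of the fitted maximal effect; on the % scale 0 is the no-effect control and ±100 the full control effect; nearly all actives have a fitted effect of over 60% in size; hits raise eYFP signal because A3G escapes Vif-driven loss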
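HeLa cells stably expressing Vif and C-terminally eYFP-tagged A3G, seeded overnight at 37 deg C, then exposed to compound by pintool overnight at 37 deg C. Rise in yellow fluorescence (Ex 488/Em 500-530, Acumen) marks blocked Vif-driven A3G degradation.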
RGS4 inhibitor = inhibitors of human regulator of G protein signaling 4. hit rate 0.039% among 390,000. AID 504845. Transcreener GDP fluorescence polarization, RGS4-accelerated GTP hydrolysis. Potency, µM (doses to about 114 µM), without a hit: at the highest dose activity change, negative = inhibition, usual class: inhibitors; further: potency means the concentration at half of the fitted maximal effect; on the % scale 0 is the no-effect control and ±100 the full control effect; nearly all actives have a fitted effect of over 75% in size; some results filed as inactive show a strong effect at the top dose
Target sequence (P49798 whole entry, looked up): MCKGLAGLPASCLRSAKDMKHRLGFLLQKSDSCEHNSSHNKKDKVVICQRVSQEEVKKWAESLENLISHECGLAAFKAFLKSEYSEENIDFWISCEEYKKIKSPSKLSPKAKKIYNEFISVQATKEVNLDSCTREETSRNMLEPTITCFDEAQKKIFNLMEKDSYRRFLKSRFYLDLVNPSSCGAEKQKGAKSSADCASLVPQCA
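MLSMR compounds (23 nl, pin-transferred) preincubated 10 min at room temperature with a 500nM (2x) first reagent, then RGS4 at 900nM (2x) plus Transcreener GDP mix added; fluorescence polarization (620/688 nm) read before and after 90 min at 30 °C.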
rTrxR1 inhibitor = inhibitors of rat thioredoxin reductase 1; hit rate 1% among 390,000; Potency, µM (highest dose often 114 µM), inactives show at the highest dose activity change, negative = inhibition, most hits filed as inhibitors; recombinant rTrxR1, NADPH fluorescence consumption, selenite substrate; AID 588453; O89049; further: potency means the concentration at half of the fitted maximal effect; on the % scale 0 is the no-effect control and ±100 the full control effect; nearly all actives have a fitted effect of over 65% in size
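Rat TrxR1 (90 nM in the dispensed reagent) was pre-reduced with 400 uM NADPH for 5 min at room temperature, then incubated with compound for 15 min. After 400 uM selenite was added, NADPH fluorescence (Ex 340/Em 450 nm) was followed for 8 min.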
Vif-APOBEC3F blk = blocks the Vif interaction with APOBEC3F. Potency, µM (series often up to 46.1 µM), for inactives: top-dose activity, negative = active. hit rate 0.2% among 390,000. HeLa A3F-eYFP + Vif (tagged APOBEC3F with the HIV-1 protein that degrades it), YFP fluorescence increase. AID 602313; further: potency means the concentration at half of the fitted maximal effect; % of control where 0% means no effect; nearly all actives have a fitted effect of over 65% in size
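HeLa cells stably expressing Vif plus C-terminally eYFP-tagged A3F were seeded, incubated overnight at 37 deg C, dosed with compound, incubated overnight again at 37 deg C. Yellow fluorescence (Ex 488/Em 500-530) reported blocked Vif-mediated A3F-eYFP degradation.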
Glioma ERSR ind = induces the endoplasmic reticulum stress response in human glioma cells | Potency, µM, for the others: at the highest dose activation, most hits filed as activators | hit rate 0.02% among 420,000 | AID 602332 | U87-MG GRP78 promoter luciferase reporter, 16 h; further: potency means the concentration at half of the fitted maximal effect; series mostly up to about 76 µM; % of control where 0% means no effect; nearly all actives have a fitted effect of over 35% in size
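Stably transfected U87-MG glioma cells carrying a GRP78-based luciferase sensor; 16 h compound incubation. Luminescence end-point read 10 min after Bright-Glo addition at room temperature.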
LDHA block = inhibitors of human lactate dehydrogenase A; P00338; hit rate 0.15% among 480,000; purified LDHA, NADH/diaphorase-resazurin fluorescence; hits give low values; AID 1347041; activity change, % (values are at about 110 or 230 µM); in the data active means activity change below about -30%; inconclusive means mostly about -25% to -30%;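 further: plate controls were DMSO wells for no effect and wells without enzyme for full effect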
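LDH5 2 nM; NADH 0.06 mM, pyruvate 0.2 mM; 200 mM Tris pH 7.4, EDTA, Tween-20; 5 min RT. Detection: diaphorase 0.133 mg/mL + resazurin 37 µM, fluorescence ex540/em590 at 0 and 20 min; normalized to enzyme-free and DMSO wells.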
IDH1 R132H inh = human IDH1 R132H inhibition. Potency, µM (top dose mostly 76.6 µM), for the others: at the highest dose activity change, negative = inhibition, most hits filed as inhibitors. hit rate 0.093% among 390,000. O75874. IDH1-R132H enzyme, NADPH consumption, diaphorase/resazurin fluorescence; further: potency means the concentration at half of the fitted maximal effect; on the % scale 0 is the no-effect control and ±100 the full control effect; nearly all actives have a fitted effect of over 65% in size
Target sequence (O75874 whole entry R132H, stated change not applied): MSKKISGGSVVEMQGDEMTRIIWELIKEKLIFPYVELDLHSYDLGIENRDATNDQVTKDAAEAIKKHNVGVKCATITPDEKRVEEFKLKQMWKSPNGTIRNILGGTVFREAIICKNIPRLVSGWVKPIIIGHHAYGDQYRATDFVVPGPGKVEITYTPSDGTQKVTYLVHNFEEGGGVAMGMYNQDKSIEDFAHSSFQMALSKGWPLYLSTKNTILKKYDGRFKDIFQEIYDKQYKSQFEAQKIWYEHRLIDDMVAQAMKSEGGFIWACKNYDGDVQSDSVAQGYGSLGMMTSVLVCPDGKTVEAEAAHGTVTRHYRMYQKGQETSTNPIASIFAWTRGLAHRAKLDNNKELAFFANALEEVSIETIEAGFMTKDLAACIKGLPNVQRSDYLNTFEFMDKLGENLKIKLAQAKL
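IDH1-R132H (0.5 ug/mL dispensed) in pH 7.5 Tris buffer was preincubated 30 min with compound, then given a substrate mix of 0.016 mM NADPH and 2 mM alpha-KG for 80 min at room temperature; remaining NADPH was read by diaphorase/resazurin fluorescence.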
TrxR1 substrate = is turned over as a substrate by rat TrxR1 | purified TrxR1 substrate turnover, NADPH consumption readout | O89049 | AID 588456 | hit rate 0.01% among 390,000 | Potency, µM (series often up to 114 µM), inactives show at the top dose activity change, negative = substrate turnover; further: potency means the concentration at half of the fitted maximal effect; on the % scale 0 is the no-effect control and ±100 the full control effect; nearly all actives have a fitted effect of over 50% in size
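Rat TrxR1, dispensed at 90 nM, was prereduced with 400 uM NADPH (final) for 5 min at ~22 deg C, then incubated with compound 15 min before 400 uM selenite. A first-read NADPH fluorescence drop versus no-compound background flagged substrates.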
* marks the source's active call; other numbers are inactive results; ? = inconclusive; [ ] = another dose, or the depositor's remark. Unless noted, the call rests on the fitted dose curve; in most records, active means well fitted curve in the direction sought with a large enough effect; inconclusive means small, poorly fitted or top-dose-only effect, or another doubt; inactive means no such curve, though single readings can be large; an effect the other way counts as inactive or inconclusive. These rows are one share of the data; the hit share may differ from the screen's.

No. | mol | LDHA block | TrxR1 substrate | Vif-APOBEC3F blk | Vif-APOBEC3G blk
1 | O=C(O)c1c2c(nc3ccccc13)/C(=C/c1ccccc1[N+](=O)[O-])CCC2 | 1 | -8% | 3% | 2%
2 | C/C(CC(=O)Nc1c(C)cc(C)cc1C)=N\NC(=O)OC(C)(C)C | -2 | -10%[57.1 µM] | 5% | 0%
3 | Clc1ccc(C(c2ccccc2)N2CCN(c3ccccn3)CC2)cc1 (stereo not given) | -6 | 0% | -5% | -7%
4 | CC(Sc1nc2ccccc2c(=O)n1CC1CCCO1)C(=O)NC(C)c1ccccc1 (stereo not given) | -7 | 4% | 1% | -1%
5 | CC(C)NC(=O)NC(=O)CSc1nnc(C(F)(F)F)n1C | -1 | 5%[57.1 µM] | -5% | -4%
6 | COc1cc2cnc(-c3ccccc3)c(C(=O)c3ccc(F)cc3)c2cc1OC | 2 | 2%[57.1 µM] | -3% | 1%
7 | CC(C)(C)NC(=O)c1ccc2c3c(cccc13)CC2 | 3 | 22% | 1% | -1%
8 | COC(=O)CCC(=O)OC1(C)C(=O)C=C2C=C(C3CC3)N(Cc3ccc4c(c3)OCO4)C=C2C1=O (stereo not given) | 19 | -7% | -4% | -5%
9 | COc1ccc(C2C=C(c3ccccc3)Nc3nc(NC(=O)c4ccc(C)cc4)nn32)cc1 (stereo not given) | -6 | 5% | -7% | -10%
10 | COC(=O)CCC(=O)OC1(C)C(=O)C=C2C=C3CCCN3C=C2C1=O (stereo not given) | 1 | -6% | 1% | -2%

No. | IDH1 R132H inh | Glioma ERSR ind | rTrxR1 inhibitor | RGS4 inhibitor
1 | -12% | -1% | 2% | 11%
2 | 5% | 2% | 1%[57.1 µM] | -10%
3 | 8% | -5% | 12% | 3%
4 | 1% | -1% | 8% | 1%
5 | 4% | -1% | 21%[57.1 µM] | ?
6 | -21% | -5% | 20% | 14%
7 | 11% | 2% | 21%[57.1 µM] | -10%
8 | 18% | -3% | -12% | -26%
9 | -7% | -3% | 19% | 23%
10 | -16% | -6% | ? | -48%

A second format for three compounds above.
Each structure is followed by: LDHA block | TrxR1 substrate | Vif-APOBEC3F blk | Vif-APOBEC3G blk | IDH1 R132H inh | Glioma ERSR ind | rTrxR1 inhibitor | RGS4 inhibitor
[6] COc1cc2cnc(-c3ccccc3)c(C(=O)c3ccc(F)cc3)c2cc1OC
→ 2 | 2%[57.1 µM] | -3% | 1% | -21% | -5% | 20% | 14%
[1] O=C(O)c1c2c(nc3ccccc13)/C(=C/c1ccccc1[N+](=O)[O-])CCC2
→ 1 | -8% | 3% | 2% | -12% | -1% | 2% | 11%
[8] COC(=O)CCC(=O)OC1(C)C(=O)C=C2C=C(C3CC3)N(Cc3ccc4c(c3)OCO4)C=C2C1=O (stereo not given)
→ 19 | -7% | -4% | -5% | 18% | -3% | -12% | -26%

3 entries from above, ordered by the value under rTrxR1 inhibitor, largest number first.
no. | compound | TrxR1 substrate | IDH1 R132H inh | Glioma ERSR ind | rTrxR1 inhibitor | RGS4 inhibitor
6 | COc1cc2cnc(-c3ccccc3)c(C(=O)c3ccc(F)cc3)c2cc1OC | 2%[57.1 µM] | -21% | -5% | 20% | 14%
4 | CC(Sc1nc2ccccc2c(=O)n1CC1CCCO1)C(=O)NC(C)c1ccccc1 (stereo not given) | 4% | 1% | -1% | 8% | 1%
8 | COC(=O)CCC(=O)OC1(C)C(=O)C=C2C=C(C3CC3)N(Cc3ccc4c(c3)OCO4)C=C2C1=O (stereo not given) | -7% | 18% | -3% | -12% | -26%
